Bioassay records as filed in PubChem.
CSC inhib = cancer stem cell inhibition | cancer stem cell-like cells viability, luminescence | actives 1.1% (n = 300,000) | inhibition, % at 7.5 µM;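 active = mean at 75% or more and at least half the replicates too; inconclusive = mean and replicates disagree; tested in HMLE shEcad cells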;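 note: 0% = median of negative and 100% = median of positive control wells; the first replicate is given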
eIF4H FP inh = inhibitors of RNA binding by human eIF4H; Q15056; actives 0.94% (n = 290,000); inhibition, % at 35 µM; eIF4H fluorescence polarization binding assay;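 active = 50% or more with normal probe brightness, or confirmed in later tests; inconclusive = above 50% with abnormal brightness, or retests that disagree; inactive = below 50% or failed in later tests; about a fifth of its hits are not listed in these tables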;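 note: calls also rest on retests at 20 µM and on dose response follow-up; 0% = protein and probe with vehicle and 100% = probe without protein; strong numbers were not always called active; many hits fall short of the cut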
Rce1 inhib = inhibitors of yeast Ras-converting enzyme; actives 0.27% (n = 290,000); AID 2563; yeast membranes, quenched prenylated peptide cleavage fluorescence; calls only;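 active = fall in fluorescence gain of 50% or more versus controls, with final raw signal at or below 3038400; inconclusive = same 50% fall but final raw signal above 3038400; inactive = fall in fluorescence gain under 50%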;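 note: plate controls were neutral control wells for no effect and wells lacking membranes for full effect; tested at 10 µM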
Target sequence (Q03530 whole entry, looked up): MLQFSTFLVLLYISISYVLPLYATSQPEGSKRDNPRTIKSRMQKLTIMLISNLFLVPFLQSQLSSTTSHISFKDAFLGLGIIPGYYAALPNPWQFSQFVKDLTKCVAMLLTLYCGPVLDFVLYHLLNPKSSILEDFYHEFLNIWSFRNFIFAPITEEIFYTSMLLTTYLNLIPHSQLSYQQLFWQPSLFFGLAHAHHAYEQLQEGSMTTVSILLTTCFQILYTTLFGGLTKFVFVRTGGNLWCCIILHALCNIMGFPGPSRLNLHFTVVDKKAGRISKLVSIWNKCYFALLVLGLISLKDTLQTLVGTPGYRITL
PABP polyA inh = PABP-poly(A) binding inhibition; P11940; PABP-poly(A) RNA binding, fluorescence polarization; inhibition, % at 35 µM; actives 1% (n = 290,000); AID 2014;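 active = 50% or more with normal probe brightness, or confirmed in later tests; inconclusive = above 50% with abnormal brightness, or retests that disagree; inactive = below 50% or failed in later tests; about a fifth of its hits are not listed in these tables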;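 note: calls also rest on retests at 20 µM and on dose response follow-up; controls were probe without protein and protein plus probe with vehicle; some compounds called inactive have numbers as strong as hits; many hits fall short of the cut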
Yeast UUG start = yeast start codon fidelity modulation | S. cerevisiae UUG-firefly luciferase reporter, luminescence/redox ratio | activity score, % at 18.7 µM | actives 0.13% (n = 350,000);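 active = replicate mean at a twofold rise or more, about +100% in these data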;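 note: firefly luciferase made from a UUG start codon reports start codon fidelity; reporter light over untreated wells divided by growth signal over untreated wells; some hits fall short of that in this replicate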
HIV Env fusion = inhibitors of HIV Env-mediated cell fusion. actives 1.1% (n = 360,000). inhibition, % at 12.3 µM. HeLa-JRFL Env/CEM21 cell fusion, luciferase;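 active = mean replicate inhibition score of at least 50 and every replicate individually at or above 50; inconclusive = only one of the two criteria met; inactive = mean below 50 and not all replicates reaching 50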;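 note: 0% = plate neutral controls and 100% = maraviroc near 300 nM; one replicate is shown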
MT1-MMP act inh = MT1-MMP (human) activation inhibition | AID 651647 | P50281 | HT1080 RFP-PRO-GFP cells, GFP/RFP ratio fluorescence, overnight; percent of plate control window, DMSO zero | GFP/RFP ratio change, % at 20 µM | actives 0.061% (n = 360,000);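 active = GFP/RFP ratio change of at least 30% with cell ATP level not reduced by more than half and red fluorescence within 50% of control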; note: strong numbers were not always called active
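Test system: HT1080 cells expressing an RFP-PRO-GFP fluorescent reporter construct / Compound dosing: single-point 20 µM compound, 1% DMSO / Schedule: cells overnight before dosing, compound overnight, 37 °C, 5% CO2 / Evaluation: GFP/RFP fluorescence ratio / Control set: DMSO and RFP-L50D-GFP cell wells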
eIF4H FP inh retest = further read-out of eIF4H FP inh, marked with its call; inhibition, %; compound at 20 µM; confirmation average;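 mean of two retest wells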
PABP polyA inh retest = recorded beside PABP polyA inh, whose call it bears; inhibition, %; compound at 20 µM; confirmation repeats;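 mean of two retest wells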
MT1-MMP act inh RFP = further read-out of MT1-MMP act inh, marked with its call; RFP signal change, %; measured here: RFP expression control read;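 0 = vehicle wells; hits needed this value within 50% of zero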
Active calls of the source: *; i = inactive; ? = inconclusive; . = not tested or not shown. Only part of the results is shown. The share of hits here may be higher or lower than overall.

SMILES	CSC inhib	eIF4H FP inh	Rce1 inhib	PABP polyA inh	Yeast UUG start	HIV Env fusion	MT1-MMP act inh	MT1-MMP act inh RFP	others
CC1CCN(S(=O)(=O)c2ccc(NC(=O)Cn3nnc(-c4ccccc4)n3)cc2)CC1	7	-18	i	-4	-12	-67	8	-6
N#Cc1ccccc1NC(=O)COc1ccc2c(c1)OCO2	-16	-5	i	-3	-10	-38	0	2
CCOc1ccc(C(=O)c2cnc3ccccc3c2N2CCN(CC)CC2)cc1	-19	2	i	49	-8	-166	5	7
CC(C)NC(=O)C1CCCN(S(=O)(=O)c2cccs2)C1 (stereo not drawn)	1	-16	i	2	-14	.	-1	1
CSc1nc2ccccc2c(=O)n1C1CCCCC1	.	-10	i	-12	18	6	5	6
Cc1ccsc1-c1nc(CSCC(=O)NCCN2CCCC2)c(C)o1	-8	-15	i	-7	-12	-123	-2	-3
COc1ccc(N2CCN(C(c3ccccc3OC)c3nnnn3Cc3ccco3)CC2)cc1 (stereo not drawn)	21	5	i	4	-6	.	-11	-11
O=C1CC(N2CCN(c3ccc(O)cc3)CC2)C(=O)N1Cc1cccs1 (stereo not drawn)	2	13	.	4	-17	.	2	3
O=C(NC12CC3CC(CC(C3)C1)C2)c1ccc(Br)o1	-5	-9	i	-7	-7	8	1	2
CCOC(=O)c1cnn(CCOC(=O)c2ccc(F)cc2)c1NC(=O)c1ccc(F)cc1	1	4	i	10	-18	-7	-4	-5
Cc1cccc(N2CCN(S(=O)(=O)c3cccc4nonc34)CC2)c1C	.	-9	i	-13	.	.	-3	-6
COc1cc(C)c(C(=O)CC(=O)c2c(C)cc(OC)cc2C)c(C)c1	132*	.	i	.	2	-8	0	-5
COC(=O)CNC(=O)C1CCCN1C(=O)CNC(=O)OC(C)(C)C (stereo not drawn)	-8	-3	i	8	-16	.	-4	2
COc1cccc(CN2CCN(C(c3ccccc3)c3ccccc3)CC2)c1O	9	8	i	-3	-9	1	-3	-1
CCN1CCN(CCNC(=O)c2ccc(/C=C3/Sc4ccccc4N(Cc4cccc(C)c4)C3=O)cc2)CC1	102*	-0.9*	i	60*	-5	-19	1	-5	eIF4H FP inh retest=95*;PABP polyA inh retest=76*
CCOc1ccc(CN2CCN(C(=O)c3cccc4ccccc34)CC2)cc1	16	4	i	4	-5	-7	-4	-29
NC(=O)c1ccc(NC(=O)CCN2C(=O)c3ccccc3C2=O)cc1	-6	-2	i	-20	-6	-3	2	6
CCCNc1nc2c(c(=O)n(C)c(=O)n2C)n1Cc1ccc(F)cc1	-7	-5	i	-5	-16	28	-7	-23
COCCOC(=O)C1=C(C)Nc2cc(=O)[nH]c(=O)n2C1c1cccc([N+](=O)[O-])c1 (stereo not drawn)	-5	-5	i	5	-8	11	4	3
FC(F)(F)c1cccc(-c2ccn3ncnc3n2)c1	0	1	i	12	.	-14	6	7
O=C(Nc1cccc(Cl)c1)C1CCCN(c2cnccn2)C1 (stereo not drawn)	-6	-8	i	0	-9	12	-3	0
Cc1noc2ncnc(Oc3ccc4ccccc4c3)c12	-13	15	i	-2	.	.	0	3
CCO[C@H]1OC(C(=O)N2CCN(Cc3ccc4c(c3)OCO4)CC2)=C[C@@H](C(C)(C)C)[C@@H]1CCCO	-7	-4	i	-5	-7	?	2	1
COc1ccc(S(=O)(=O)N2CCN(CCc3ccccc3)CC2)c(OC)c1	12	-11	i	-5	-16	20	2	-20
S=c1nccc(-c2cc(Cl)sc2Cl)[nH]1	12	-3	i	16	-20	.	4	7
The list continues.
SMILES	CSC inhib	eIF4H FP inh	Rce1 inhib	PABP polyA inh	Yeast UUG start	HIV Env fusion	MT1-MMP act inh	MT1-MMP act inh RFP	others
Cc1occc1C(=O)N/N=C/c1cccc2ccccc12	1	-18	.	-16	-1	-60	-3	-2
O=C(/C=C/c1ccccc1)N1CCN(S(=O)(=O)c2ccc(F)cc2)CC1	-8	4	i	-12	.	8	-2	-4
CCOC(=O)NC(=O)c1cn(Nc2ncc(Cl)cc2C(F)(F)F)c(=O)[nH]c1=O	-4	1	i	-1	-1	-11	2	2
Cc1ccc(OCC(=O)NCCCNC(=O)c2ccncc2)cc1	-10	-6	.	0	-3	-7	0	3
CCC(Cc1ccccc1)NC(=O)CN(C)S(=O)(=O)c1ccc2c(c1)c(=O)n(C)c(=O)n2C (stereo not drawn)	-15	12	i	6	-5	10	-2	3
O=C(CSc1cccc[n+]1[O-])c1cccs1	-11	-2	i	77	.	?	3	-1	eIF4H FP inh retest=23;PABP polyA inh retest=30
Cc1nn(-c2ccccc2)c(Cl)c1C(=O)NCc1ccccc1F	-3	-13	i	1	-6	-8	3	0
O=S(=O)(c1ccc(F)cc1)N1CCCC1	6	1	i	-3	-20	2	-1	4
COc1ccc(C2CC(c3ccc(OC)c(OC)c3)=NN2C(=O)c2ccccc2)cc1 (stereo not drawn)	-2	4	i	-6	-9	-4	1	0
O=C1/C(=C/c2cccc(F)c2)Oc2cc(O)ccc21	6	?	i	?	-10	-8	-21	-5
O=[N+]([O-])c1ccc(N2CCCC2)cc1N1CCCC1	18	-13	i	-2	39	-15	10	-1
CC(C)C/C=C1\CCc2c([nH]c3ccccc23)C1=O	-5	-3	i	-14	0	-59	1	-3
Cc1cc(C)nc(N2CCC(C(=O)Nc3ccc(Oc4ccccc4)cc3)CC2)n1	-7	-11	i	-4	-17	-22	4	3
CCCCOc1ccccc1NC(=O)c1ccc(=O)[nH]c1	-15	-4	i	2	-12	-19	1	1
Cc1c(C(=O)NCc2ccc3c(c2)OCO3)oc2ccc(S(=O)(=O)N3CCCC3)cc12	-9	0	i	6	6	22	1	-3
O=C(Nc1ccc([N+](=O)[O-])cc1)c1cc(Cl)sc1Cl	-16	-12	i	-3	-20	-23	-2	-5
COC(=O)c1ccc(OCC(O)CN(CCO)CCO)cc1 (stereo not drawn)	-5	-11	i	3	9	-50	0	5
Cc1nc2c(c(C)nn2-c2ccccc2)c(C)c1Cl	-7	0	i	-11	-13	9	4	5
Cc1noc(C)c1CSc1ccccc1C(=O)N(C)CC(=O)Nc1cccc(F)c1	-9	.	i	.	4	.	-1	0
COc1ccc(Cn2ccnc2SCC(=O)NC2CCCC2)cc1	-7	1	i	-5	-4	7	2	-1
COc1cccc(-c2ncc3ccccc3c2COC(=O)CCC(=O)O)c1	-18	.	.	.	-5	-51	0	-1
CC1CN(C(=O)c2cc3ccccc3oc2=O)CC(C)O1 (stereo not drawn)	-8	-2	i	-4	-10	.	3	3
COc1ccc(CNC(=O)COC(=O)/C=C/c2ccco2)cc1	0	29	.	0	-9	-3	-1	2
COc1ccc(NC(=O)c2ccco2)cc1NC(=O)COc1ccccc1	-1	6	i	-3	5	13	4	-4
Cc1nc(NC(=O)COc2ccccc2)sc1C(=O)Nc1ccccc1	.	1	i	0	-13	0	-1	-1
(listing goes on)
SMILES	CSC inhib	eIF4H FP inh	Rce1 inhib	PABP polyA inh	Yeast UUG start	HIV Env fusion	MT1-MMP act inh	MT1-MMP act inh RFP	others
Cc1ccc(SCc2c(C(=O)N/N=C/C3CC=CCC3)nnn2-c2nonc2N)cc1 (stereo not drawn)	-20	-2	i	-4	.	7	-1	1
Nc1nnc(CC(=O)N/N=C\c2ccc(-c3cccc(Cl)c3)o2)s1	-2	-9	i	-10	-5	6	-1	-3
Cc1ccc(N2CC(C(=O)NCc3cccnc3)CC2=O)cc1 (stereo not drawn)	.	5	i	4	13	.	4	4
CC(=O)c1c(C)[nH]c(-c2ccccc2)c1C	-2	-2	i	-2	-10	.	4	11
C/C(=N\N=C(/N)SC1CC(=O)N(c2ccc(Cl)cc2)C1=O)c1cccs1 (stereo not drawn)	26	6	i	-8	-18	-102	9	0
Cc1c(NS(=O)(=O)c2ccccc2F)c(=O)n(-c2ccccc2)n1C	12	.	i	.	-4	4	1	2
COc1ccc(CNC(=O)C2CCCN2S(=O)(=O)c2ccc(C)cc2)cc1 (stereo not drawn)	-11	-2	i	-4	-8	30	-2	-16
COc1ccc(CCNS(=O)(=O)c2ccc(C3CNC(=O)C3)cc2)cc1OC (stereo not drawn)	0	10	i	-4	11	.	0	-2
Cc1ccc(S(=O)(=O)NC(C)(C)CN2CCCCC2)cc1	7	-7	i	-8	-9	-27	1	2
OCCN1CCN(C(=S)Nc2ccc(Oc3ccccc3)cc2)CC1	-9	-2	i	-6	.	20	6	4
ClC(Br)=C(n1cnc2ccccc21)n1cnc2ccccc21	4	0	i	0	-15	.	3	0
O=C(NCc1ccccc1)c1onc(CSc2ccc(Cl)cc2)c1C(=O)NCc1ccccc1	13	-5	i	-9	-9	-4	1	-4
O=C(c1cccc(Cl)c1)N1CCC2CC1c1cc(-c3ccc(F)cc3)ccc12 (stereo not drawn)	.	.	.	.	-15	-43	0	-7
CN1/C(=N\O)c2cccc3cccc1c23	-7	7	i	17	-25	.	-10	-3
O=C(CSc1nnc(NC(=O)C2CCC2)s1)NC1CC1	-12	-1	i	9	-15	-55	-1	1
O=C(NCCN1CCOCC1)c1sc2ccccc2c1Cl	13	-6	i	-3	.	-13	-3	1
COc1ccc(CN2C(=O)CS/C2=N/N=C/c2cccs2)cc1	-6	5	i	-18	-3	-19	3	-12
CCNC(=S)Nc1cc(OCC)c(NC(=O)c2cccs2)cc1OCC	-3	3	i	-8	-31	5	0	-4
CCn1c(SCC(=O)NCc2ccccc2)nc2nc3c(cc2c1=O)CCCC3	4	4	i	-2	.	-2	-4	0
COc1ccc(-c2nnc(Nc3nc4c(OC)cccc4s3)o2)c(OC)c1	.	4	.	-7	-4	39	3	-8
O=C(COC(=O)/C=C/c1ccccc1Cl)NCc1ccco1	-8	7	i	3	.	-12	2	2
COc1cc(NC(=O)c2ccco2)c(C(=O)OCC(=O)Nc2ncc(Cl)cc2Cl)cc1OC	1	-7	i	23	-20	-54	-6	5
Cn1c(=O)[nH]c(=O)c2c1nc(N1CCCCCC1)n2CCSc1nc2ccccc2o1	2	-10	i	1	-12	.	-4	1
COc1ccc(CC(=O)Nc2ccc(C(=O)Nc3ccccc3C(=O)O)cc2)cc1OC	17	-2	i	-10	.	-7	4	9
O=C(CSc1nnc(-c2cccc(F)c2)o1)N1CCOCC1	-19	-3	i	-7	-15	-28	2	4
(next part)
SMILES	CSC inhib	eIF4H FP inh	Rce1 inhib	PABP polyA inh	Yeast UUG start	HIV Env fusion	MT1-MMP act inh	MT1-MMP act inh RFP	others
N#Cc1ccc(CSc2nnc(-c3ccncc3)o2)cc1	-2	1	i	0	-13	1	-11	-7
CC(c1ccncn1)N(C)C(=O)c1ccc2oc(Cc3ccccc3)nc2c1 (stereo not drawn)	16	-4	i	-1	-19	-20	0	1
COC(=O)c1ccc(Cn2nc(C)c([N+](=O)[O-])c2C)o1	-8	-9	i	2	.	-8	0	6
CCn1cc(Br)c(C(=O)Nc2ccc(Cl)cc2Cl)n1	-3	-1	i	-8	-9	-113	4	5
COCc1cc(C)nc(SCC[N+](C)(C)CC(=O)c2ccccc2)c1C#N	1	4	i	-2	7	5	0	0
COc1ccccc1C(=O)NC(=O)COC(=O)CN1C(=O)NC2(CCCCC2C)C1=O (stereo not drawn)	-18	.	i	.	.	-51	-1	2
O=C(OC1CCOC1=O)C1CCN(S(=O)(=O)c2ccc(Cl)c(C(F)(F)F)c2)CC1 (stereo not drawn)	2	.	i	.	.	-6	3	0
